KCNQ2 inh = KCNQ2 potassium channel inhibitors, primary screen, cell-based, CHO-K1, FluxOR thallium flux, B-score (AID 2156) | 20 min; stronger effect = lower value; only compounds with negative scores are shown here; some inactives read as strong as hits | Potassium voltage-gated channel subfamily KQT member 2 (Rattus norvegicus), O88943 | B-score at 10 µM | actives 1.1% (n = 310,000);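 active = fluorescence ratio B-score at most minus 3 library SDs, with starting brightness B-score within 2 library SDs, cut at about -5.5 in these data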
Target sequence (O88943 whole entry, looked up): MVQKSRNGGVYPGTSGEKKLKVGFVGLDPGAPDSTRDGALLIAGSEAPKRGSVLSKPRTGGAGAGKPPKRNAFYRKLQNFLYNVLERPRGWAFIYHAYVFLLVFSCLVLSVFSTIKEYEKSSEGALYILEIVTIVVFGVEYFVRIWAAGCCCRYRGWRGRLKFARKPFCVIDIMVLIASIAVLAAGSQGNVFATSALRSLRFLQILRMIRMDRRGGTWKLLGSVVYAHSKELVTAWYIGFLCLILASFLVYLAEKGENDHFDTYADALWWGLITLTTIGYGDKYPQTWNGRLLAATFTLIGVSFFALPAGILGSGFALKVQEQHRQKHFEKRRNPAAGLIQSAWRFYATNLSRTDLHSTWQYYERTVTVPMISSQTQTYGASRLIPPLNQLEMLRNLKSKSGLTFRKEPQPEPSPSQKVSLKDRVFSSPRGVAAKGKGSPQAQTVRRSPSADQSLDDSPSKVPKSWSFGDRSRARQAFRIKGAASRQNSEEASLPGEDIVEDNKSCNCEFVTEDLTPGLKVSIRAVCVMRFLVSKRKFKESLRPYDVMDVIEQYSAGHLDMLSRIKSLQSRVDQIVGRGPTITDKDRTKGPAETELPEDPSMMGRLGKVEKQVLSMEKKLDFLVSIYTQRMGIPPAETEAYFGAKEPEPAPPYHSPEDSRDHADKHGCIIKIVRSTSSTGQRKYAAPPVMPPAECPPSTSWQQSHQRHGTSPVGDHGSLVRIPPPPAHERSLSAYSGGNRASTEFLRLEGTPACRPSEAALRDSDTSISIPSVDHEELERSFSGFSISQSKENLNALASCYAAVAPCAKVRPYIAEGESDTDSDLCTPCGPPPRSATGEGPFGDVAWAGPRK
KCNQ2 inh baseline = recorded beside KCNQ2 inh, whose call it bears; B-score; measured here: initial fluorescence intensity artifact check;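 brightness before thallium and not channel activity; 0 = typical well and far values either way flag optical interference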
* = called active by the depositor; i = inactive.

SMILES	KCNQ2 inh	KCNQ2 inh baseline
N#Cc1c(NC(=O)CCn2cnc3ccccc3c2=O)oc(-c2ccccc2)c1-c1ccccc1	i	-1.5
O=C(NCc1ccco1)c1cnc2n(c1=O)CCS2	i	0.76
Cc1nn(C)c(Cl)c1CN1CCCC(CO)(Cc2cccc(Cl)c2)C1 (stereo not drawn)	i	-1.85
CCCN(CC(=O)Nc1ccccc1C)C(=O)COC(=O)CSc1ccc([N+](=O)[O-])cc1	i	0.05
CC(C)(C)N(Cc1ccccc1)C(=O)COC(=O)[C@@H]1CCCN1C(=O)c1cccs1	i	1.15
CCOc1ccc(C(=O)Nn2cnnc2)cc1OCC	i	1.43
CCn1ccnc1CN(C)Cc1cn(-c2cccc(C)c2)nc1-c1cccc(F)c1	i	1.08
O=[N+]([O-])c1ccc(N=NNc2ccccc2)cc1	i	-0.8
Cc1nc(Oc2ccc(Cl)cc2)c2oc3ccccc3c2n1	i	1.35
Cn1cccc1/C=N/NC(N)=S	i	1.1
Oc1c(C(c2ccco2)N2CCOCC2)sc2ncnn12 (stereo not drawn)	i	-1.01
COc1ccc(NC(=O)COC(=O)c2ccc(F)cc2F)cc1	i	2.35
CC(C)c1ccc(NC(=O)COc2ccc(S(=O)(=O)N3CCOCC3)cc2)cc1	i	0.37
Cc1ccc(C(=O)NC2CC3CCCC(C2)N3C(=S)NCc2ccco2)cc1 (stereo not drawn)	i	-0.06
CCOC(=O)N1CCN(C(=O)c2ccc(Cn3c(=S)[nH]c4cc(OCC)c(OCC)cc4c3=O)cc2)CC1	i	1.05
O=C1CC(Nc2ccc3ccccc3c2)C(=O)N1Cc1ccccc1 (stereo not drawn)	i	-0.76
COc1ccc(S(=O)(=O)NCCc2ccccc2)cc1	i	0.84
O=C(CSc1ncccn1)NC(=O)NCc1ccccc1	i	-0.96
COc1ccc(CCN(C)C(=O)c2ccc(COc3ccccc3)o2)cc1OC	i	-0.87
Cc1cc(C)c2nc(N3C(=O)C(O)=C(C(=O)c4ccco4)C3c3ccco3)sc2c1 (stereo not drawn)	i	1.61
COc1cccc(CN(C)C(=O)CCc2nnc(-c3ccsc3)o2)c1	i	-1.23
COc1ccccc1N1CCN(C(=O)c2c(-c3ccccc3)noc2C)CC1	i	-0.37
COc1ccc(OC)c(-c2cc(C(=O)NC3CCCC3)c3ccccc3n2)c1	-6.07*	0.76*
COc1ccc(CNC(=O)CN(Cc2ccco2)C(=O)CNS(=O)(=O)c2ccc(C)cc2)cc1	i	2
O=C1Cc2ccccc2C(=O)N1c1ccc(F)cc1Cl	i	-0.06
COc1cc(Br)cc(CN2CCN(C=O)CC2)c1O	i	-1.71
COc1ccccc1NS(=O)(=O)c1cc(NC(=O)c2cccs2)ccc1N1CCOCC1	i	-0.84
CCc1nn(CC(=O)NCCc2ccc(OC)cc2OC)c(=O)c2cc3occc3n12	i	0.73
Cc1cc(C)c2nc(/N=C(\N)NC(=O)Nc3ccccc3)nc(C)c2c1	i	-0.1
CC1CCCCC1NC(=O)C1CCN(S(=O)(=O)c2ccc3c(c2)CCC(=O)N3)CC1 (stereo not drawn)	i	-1.25

Arranged by heavy-atom count (high to low): 7 of the compounds above.
SMILES	KCNQ2 inh	KCNQ2 inh baseline
CCc1nn(CC(=O)NCCc2ccc(OC)cc2OC)c(=O)c2cc3occc3n12	i	0.73
CC1CCCCC1NC(=O)C1CCN(S(=O)(=O)c2ccc3c(c2)CCC(=O)N3)CC1 (stereo not drawn)	i	-1.25
COc1ccccc1N1CCN(C(=O)c2c(-c3ccccc3)noc2C)CC1	i	-0.37
Cc1cc(C)c2nc(/N=C(\N)NC(=O)Nc3ccccc3)nc(C)c2c1	i	-0.1
COc1cccc(CN(C)C(=O)CCc2nnc(-c3ccsc3)o2)c1	i	-1.23
O=C1Cc2ccccc2C(=O)N1c1ccc(F)cc1Cl	i	-0.06
COc1cc(Br)cc(CN2CCN(C=O)CC2)c1O	i	-1.71

Additional compounds follow.
SMILES	KCNQ2 inh	KCNQ2 inh baseline
COc1ccc(C(=O)c2sc3nc(-c4ccccc4)ccc3c2N)cc1	i	3.07
CC1CCN(c2c(NCC3CCC(C(=O)NC4CCCCCC4)CC3)c(=O)c2=O)CC1 (stereo not drawn)	i	2.97
Cc1cccc(C(=O)O/N=C(\N)c2ccc(Cl)cc2)c1	i	-2.1
CCC(C)N1CCC(Oc2ccc(C(=O)NCc3ccccn3)cc2)CC1 (stereo not drawn)	i	0.11
Oc1ccccc1N1CCN(c2ncnc3scc(-c4ccc(F)cc4)c23)CC1	i	-2.25
Cc1cccc(CNC(=O)C2CCC(=O)N(C3CC3)C2)c1 (stereo not drawn)	i	-0.49
COCCNC(=O)CSc1nc2ccc(N3CCOCC3)cc2c(=O)n1Cc1ccc(OC)cc1	i	0.58
Cc1ccc(S(=O)(=O)NC(=O)Nc2ccc(C)cc2C)cc1	i	1.25
CC(=O)Nc1ccc(C(=O)CSc2nnc3scc(-c4ccccc4)n23)cc1	i	0.67
CC(C)(C)OC(=O)N1CCC2(CC1)Oc1ccc(F)cc1C(=O)C21CC(c2ccccc2)=NO1 (stereo not drawn)	i	1.62
CC(C)(C)c1nn(-c2ccccc2)c2nc(Cl)c(C=O)cc12	i	-2.6
CC(C)C[C@@H](COc1ccccc1)N1CCN(CCc2ccccc2)CCC1=O	i	-0.22
CCOc1ccc(NC(=O)C(=O)NCCN2CCN(S(=O)(=O)c3ccc(C)cc3)CC2)cc1	i	-0.75
O=C(NCc1cccnc1)c1c[nH]c2cc3c(cc2c1=O)OCCO3	i	2.15
COc1ccc(Oc2nnc(-c3ccc(C)cc3)c3ccccc23)cc1	i	-0.34
COc1ccc(NC(=O)CNC(=O)C23CC4CC(CC(C4)C2)C3)c(OC)c1	i	1.35
CCOc1nc(-c2ccccc2)ccc1-c1noc(COc2ccccc2)n1	i	0.47
COc1ccc(C)cc1S(=O)(=O)Nc1cccc(Cl)c1	i	2.23
COc1ccc(-c2nc3c(c(SCC(=O)N4CCOCC4)n2)Cc2c(CO)cnc(C)c2O3)cc1	i	-0.05
O=C(CCN1C(=O)C2C3CC(C(Br)C3Br)C2C1=O)OCC(=O)c1cccc([N+](=O)[O-])c1 (stereo not drawn)	i	-0.12
COC(=O)c1c(NC(=O)COC(=O)c2ccccn2)sc(C)c1C	i	0.72
CC(C)N(C(=O)CSc1nnc(Cc2csc(Nc3ccccc3)n2)o1)C(C)C	i	-0.02
Cn1c(=O)cc(SCC(=O)NCCCN2CCOCC2)c2ccc(Cl)cc21	i	-0.02
N#CCC(=O)Nc1ccc(C(=O)OCC(=O)Nc2ccccc2-c2ccccc2)cc1	i	-0.54
Cc1ccc(C(=O)C2=C(O)C(=O)N(Cc3ccco3)C2c2cccc(Br)c2)o1 (stereo not drawn)	i	0.9
CN(C)c1cccc2c(S(=O)(=O)N3CCOCC3)cccc12	i	1.37
O=C(CN1CCN(S(=O)(=O)c2ccccc2F)CC1)Nc1ccccc1C(=O)c1ccccc1	i	0.12
O=C(CNC(=O)c1ccccc1F)OCCCOC(=O)CNC(=O)c1ccccc1F	i	0.3
CS(=O)(=O)Nc1ccc(C2=NN(C(=O)c3ccco3)C(c3ccc(F)cc3)C2)cc1 (stereo not drawn)	i	-0.88
CSC1=C(C#N)C(=O)NC(c2ccccc2O)S1 (stereo not drawn)	i	-1.11

Pulled by compound from the entries so far (5):
SMILES	KCNQ2 inh	KCNQ2 inh baseline
Cc1ccc(C(=O)C2=C(O)C(=O)N(Cc3ccco3)C2c2cccc(Br)c2)o1 (stereo not drawn)	i	0.9
COC(=O)c1c(NC(=O)COC(=O)c2ccccn2)sc(C)c1C	i	0.72
O=C(CNC(=O)c1ccccc1F)OCCCOC(=O)CNC(=O)c1ccccc1F	i	0.3
Cn1c(=O)cc(SCC(=O)NCCCN2CCOCC2)c2ccc(Cl)cc21	i	-0.02
CS(=O)(=O)Nc1ccc(C2=NN(C(=O)c3ccco3)C(c3ccc(F)cc3)C2)cc1 (stereo not drawn)	i	-0.88

Carrying on.
SMILES	KCNQ2 inh	KCNQ2 inh baseline
O=C(CN1C(=O)NC2(CCCC2)C1=O)Nc1nc(-c2ccc(F)cc2)cs1	i	-1.26
O=S(N1CCCCC1)C12CC3CC(CC(C3)C1)C2 (stereo not drawn)	i	-0.03
CCOc1ccc(C=NC23CN4CN(CN(C4)C2)C3)cc1	i	1.13
COc1ccc(S(=O)(=O)N2CCN=C2SCc2cccc(C)c2)cc1	i	-0.55
Cc1sc(NC(=O)c2c(F)cccc2F)nc1-c1ccccc1	i	1.08
CCN(CC)C(=O)CN(c1cc2c(cc1OC)oc1ccccc12)S(=O)(=O)c1ccc(C)cc1	i	1.52
CCn1c(CNC(=O)c2ccccc2Br)nnc1SCC(=O)NC1=NCCS1	i	0.95
CC1=CC2=NC(=O)/C(=C\c3ccc(-c4cccc(Cl)c4)o3)C(=N)N2O1	i	0.97
CC(OC(=O)c1ccccc1NS(=O)(=O)c1cccc(C(F)(F)F)c1)C(=O)N(C)Cc1ccccc1 (stereo not drawn)	-6.47*	-0.65*
CCOC(=O)c1ccc(NC(=O)c2cc(F)c(F)cc2Cl)cc1	i	0.01
COc1ccc(C)cc1NC(=O)CNC(c1ccccc1)c1ccccc1	i	-0.51
CCOC(=O)[C@@H]1[C@H]2COc3ccccc3[C@@H]2N2C(=O)N(c3cccc(Cl)c3)C(=O)[C@]12C	i	-0.47
O=C(COC(=O)CCC(=O)c1ccc(Cl)cc1)NCc1ccco1	i	-1.03
COC(=O)Nc1ccc2c(c1)N(C(=O)CCN1CCOCC1)c1ccccc1S2	i	-0.05
COC(=O)CNc1ccc2c(c1)OCO2	i	-0.68
CCC(=O)NC(c1ccc([N+](=O)[O-])cc1)c1c(O)ccc2ccccc12 (stereo not drawn)	i	0.01
C[n+]1c2n(c3ccccc31)N=C(c1ccccc1)CS2	i	0.34
COc1cccc(C(=O)/C(C#N)=N/Nc2cccc(-c3ccnc(C)n3)c2)c1	i	-1.06
CCN1CCN(C(c2ccccc2)c2sc3nc(C)nn3c2O)CC1 (stereo not drawn)	i	-0.72
Oc1ccc(NCc2ccccc2OCc2ccccc2F)cc1	i	2.44
O=C(NCCc1nc2ccc(Cl)cc2[nH]1)C1CCC(=O)N(Cc2cccc(F)c2)C1 (stereo not drawn)	i	-0.06
COC(=O)C1=C(N)OC2=C(C(=O)CC(C)(C)C2)C1c1ccccc1OCC#N (stereo not drawn)	i	-1.09
CN(C)CC(=O)N1CCc2ccccc2C1	i	1.94
CCOCCCN(CCC#N)S(=O)(=O)c1ccc(S(=O)(=O)N2CCCC2)cc1	i	-0.17
COc1ccccc1NC(=O)NCCCl	i	0.32
Cc1ccnc(SCC(=O)O)n1	i	0.04
CN(Cc1ccccc1)c1nc2c(c(=O)[nH]c(=O)n2C)n1CCOc1ccccc1	i	0.3
COc1ccc(S(=O)(=O)N2CCN(Cc3cccc(OC)c3)CC2)cc1	i	-1.75
Cc1n[nH]c(C)c1CCC(=O)N/N=C/c1c[nH]c2ccccc12	i	1.28
O=C(O)c1cccc(NC(=O)c2ccc3c(c2)C(=O)N(CC2CCCO2)C3=O)c1 (stereo not drawn)	i	0.5
COc1ccc(/C=C2\CCc3ccccc3C2=O)cc1Cn1cccn1	i	1.59
Cc1ccc(C(=O)Nc2ccc(Cl)cn2)cc1	i	-0.14
Cc1cc(C)c(C(=O)CN2C(=O)NC3(CCCCCC3)C2=O)cc1C	i	1.06
CSCCC(NC(=O)c1ccc([N+](=O)[O-])cc1Cl)C(=O)OCC(=O)N1CCN(C(C)=O)CC1 (stereo not drawn)	i	-0.49
CCOC(=O)N1CCN(C(=O)c2ccc3c(=O)n(CCc4ccc(OC)c(OC)c4)c(=O)[nH]c3c2)CC1	i	-2.07
CCOC(=O)Cn1c(=O)oc2ccc(C)cc21	i	-0.61
Cn1c(N)c(C#N)c2c(c1=S)CSC(C)(C)C2	i	0.09
Cc1ccccc1C1c2[nH]c3ccccc3c2C[C@H]2C(=O)N(c3ccccc3C(=O)NCCCN3CCOCC3)C(=O)N12 (stereo partly drawn)	i	-0.34
CC(NC(=O)c1ccccc1Br)c1nnc(SCC(=O)NC2CCCCC2)n1C (stereo not drawn)	i	0.57
CCOC(=O)[C@@H]1[C@H]2COc3cc(OC)ccc3[C@@H]2N2C(=O)N(c3ccc(Cl)cc3)C(=O)[C@]12C	i	0.34
CCCCSc1nnc(-c2c[nH]c3ccccc23)n1C	i	0.52
CCCCN(CC)CCCNC(=O)CS(=O)(=O)Cc1nc(-c2cccc(OC)c2)oc1C	i	-0.47
COc1ccc(N(C(=O)Cc2cccs2)C(C(=O)NC2CCCCC2)c2cccn2C)cc1OC (stereo not drawn)	i	-1.02
Cc1cccnc1NC(=O)c1sc2ccccc2c1Cl	i	-1.8
O=C1c2cccc([N+](=O)[O-])c2C(=O)N1c1ccccc1	i	-1.88
CCOc1ccc(NC(=O)CCNC(=O)c2ccco2)cc1	i	0.35
COC(=O)C(Cc1cncn1COCc1ccccc1)NC(=O)OC(C)(C)C (stereo not drawn)	i	0.15
CCCCNC(=O)c1cc(-c2ccc3c(c2)OCO3)on1	i	1.05
COc1cccc(CN2CCN(Cc3ccc(C)o3)CC2CCO)c1 (stereo not drawn)	i	0.2
Cn1nc(-c2ccccc2)c(CO)c1Oc1cccc(C(F)(F)F)c1	i	1.48

One compound at a time (already shown). Order of screens: KCNQ2 inh	KCNQ2 inh baseline
CCOc1ccc(C=NC23CN4CN(CN(C4)C2)C3)cc1 across the screens: i	1.13
Cc1cccc(CNC(=O)C2CCC(=O)N(C3CC3)C2)c1 (stereo not drawn) across the screens: i	-0.49
CCOC(=O)[C@@H]1[C@H]2COc3cc(OC)ccc3[C@@H]2N2C(=O)N(c3ccc(Cl)cc3)C(=O)[C@]12C across the screens: i	0.34
CCn1c(CNC(=O)c2ccccc2Br)nnc1SCC(=O)NC1=NCCS1 across the screens: i	0.95

Carrying on.
SMILES	KCNQ2 inh	KCNQ2 inh baseline
OC1C[N+]2(CCCCC2)C1	i	-0.16
CCOC(=O)c1c(C)[nH]c(C(=O)COC(=O)/C=C/c2ccc3c(c2)OCO3)c1C	i	0.09
CN(C)c1nc(-c2cccnc2)nc(-c2ccccc2)c1C#N	i	-1.46
CCOc1ccc(NC(=O)c2cccs2)c([N+](=O)[O-])c1	i	-1.21
CCc1ccc(-c2csc3ncn(CC)c(=O)c23)cc1	i	0.7

Screens from PubChem BioAssay.

Not all compounds are listed; count on the stated rates, not on these rows.
